High-throughput results deposited in PubChem BioAssay by National Center for Advancing Translational Sciences (NCATS).
VDR inhibitor – blocks the human vitamin D receptor | P11473 | VDR-SRC2-3 peptide fluorescence polarization, 2 h | Potency, µM, inactives show max response, negative = inhibition, hits mostly inhibitors | 400,000 tested, 0.93% active | AID 504847; active means well fitted inhibition curve with a large enough effect; inconclusive means small, poorly fitted or top-dose-only effect, or another doubt; inactive means no such curve, though single readings can be large or run the other way; further: series mostly up to about 120 µM
Target sequence (P11473 whole entry, looked up): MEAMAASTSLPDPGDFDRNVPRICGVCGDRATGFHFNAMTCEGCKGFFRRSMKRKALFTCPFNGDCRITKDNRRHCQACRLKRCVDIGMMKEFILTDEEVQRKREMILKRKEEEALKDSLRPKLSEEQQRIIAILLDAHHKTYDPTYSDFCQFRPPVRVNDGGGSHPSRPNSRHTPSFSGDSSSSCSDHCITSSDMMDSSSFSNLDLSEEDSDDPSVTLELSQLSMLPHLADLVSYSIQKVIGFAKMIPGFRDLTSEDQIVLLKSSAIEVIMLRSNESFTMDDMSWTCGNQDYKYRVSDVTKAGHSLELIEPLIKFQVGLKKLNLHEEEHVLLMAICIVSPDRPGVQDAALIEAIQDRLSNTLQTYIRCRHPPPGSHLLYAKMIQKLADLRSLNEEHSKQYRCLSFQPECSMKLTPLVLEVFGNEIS
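After 23 nl compound addition and a short centrifugation, plates sat for 2 hours at ambient temperature; polarization of fluorescence then indicated loss of VDR binding to peptide SRC2-3.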
* = called active by the depositor; ? = inconclusive; & = joins results of further samples. On the % scale 0 is the no-effect control and ±100 the full control effect; potency means the concentration at half of the fitted maximal effect. Only part of the results is shown. The share of hits here may be higher or lower than overall.

#	mol	VDR inhibitor
1	CC(NC(=O)C1CCC1)c1ccc(Br)cc1 (centres undefined)	-14%
2	CCN(C(=O)COC(=O)c1cncc(Br)c1)C1CCS(=O)(=O)C1 (centres undefined)	-12%
3	CCc1ccc2[nH]c(=O)c(CN(Cc3ccc4c(c3)OCO4)Cc3nnnn3C3CCCC3)cc2c1	0%
4	Cc1nn(CC(=O)Nc2ccncc2)c(C)c1[N+](=O)[O-]	-12%
5	O=c1ccn([C@@H]2O[C@H](COP(=O)(O)OP(=O)(O)O)[C@@H](O)[C@H]2O)c(=O)[nH]1	-1%&7%
6	C=CCNc1nc(NCCN2CCOCC2)nc(N2CCOCC2)n1	-12%
7	CC(C)c1ccc(NC(=O)NN2CCOCC2)cc1	-3%
8	O=C(Nc1ccccc1)C1CCCN1C(=O)NCc1ccccc1 (centres undefined)	4%
9	COc1ccc(NC(=O)c2ccc(NC(=O)CSc3nc(N)cc(=O)[nH]3)cc2)cc1	-18%
10	CCc1ccccc1OCC(=O)Nc1cc(S(=O)(=O)N(CC)CC)ccc1N1CCOCC1	6%
11	O=c1cc(CSc2nc3ccccc3c(=O)[nH]2)c2ccc(O)cc2o1	-15%
12	COc1ccc(C2COC(=O)C2=N)c(NC(=O)c2ccc(Cl)cc2)c1 (centres undefined)	-16%
13	COc1cccc(CNC(=O)CCC2CCCN(C(=O)c3ccc(OC)o3)C2)c1 (centres undefined)	-21%
14	O=C(Nc1ccc(F)cc1)c1nsc(Cl)c1Cl	20%
15	COC(=O)c1ccc(NC(=O)CSc2nnnn2C2CCCCC2)cc1	-12%
16	COCCCNS(=O)(=O)c1ccc(N2CCCCS2(=O)=O)cc1	14%
17	O=C(O)CCN1/C(=C/C=Nc2ccccc2)Oc2ccccc21	28%
18	CCCN(CC1CCCO1)C(=O)CCc1nnc(-c2cc(C)on2)o1 (centres undefined)	6%
19	CCN(CC(=O)NCc1ccc(Cl)cc1)CC(=O)NC1(C#N)CCCC1	18%
20	CCOC(=O)c1nc(Nc2ccccc2C)c2ccccc2n1	2%&-8%
21	Cn1c(NN)nc2sc3c(c2c1=O)CC(C)(C)OC3	7%
22	CCOC(=O)N=S(N)(=O)c1ccccc1 (centres undefined)	10%
23	CCN(C(=O)COC(=O)c1cccnc1SC)c1c(N)n(Cc2ccccc2)c(=O)[nH]c1=O	8%
24	O=c1[nH]c2c(c(=O)[nH]1)OCN(Cc1ccccc1)C2	-2%
25	O=C(NC1CC1)C1CCN(S(=O)(=O)c2ccc(Cl)cc2)CC1	12%
26	CCCCNC(=O)c1ccc2c(=O)n(Cc3ccc(OC)cc3)c(=O)[nH]c2c1	-9%
27	CC1Sc2ccc(S(=O)(=O)CCC(=O)N3CCCCC3)cc2NC1=O (centres undefined)	-15%
28	COc1cccc(CNC(=O)C2CCN(c3nnc(N4CCCC4=O)s3)CC2)c1	9%
29	C=CC(=O)NC1CC2CCC1(C)C2(C)C (centres undefined)	-12%
30	Cc1cccc(NC(=O)COc2coc(CN3CCN(Cc4ccccc4)CC3)cc2=O)c1	-9%
31	c1csc(-c2nn3c(C4COc5ccccc5O4)nnc3s2)c1 (centres undefined)	?
32	O=C(Nc1ccc(OC(F)(F)F)cc1)NC1CCC(Oc2ccc(C(=O)O)cc2)CC1 (centres undefined)	-5%
33	O=C(OCC1CCCO1)c1ccc2c(c1)N(Cc1ccccc1)C(=O)c1ccccc1S2(=O)=O (centres undefined)	2%
34	O=C(CSc1nncs1)Nc1cccc2ccccc12	-7%
35	COc1ccc(-n2c(=S)[nH]c3cc(C(=O)Nc4cccc(C)c4)ccc3c2=O)cc1	-1%
36	COc1cccc(-n2nnnc2SCC(=O)Nc2ccccc2OC)c1	3%
37	Cc1cccn2c(=O)c3cc(C(=O)NC4CCCCCC4)sc3nc12	-10%
38	CCCC(=O)Nc1ccc2c(c1)nc(CN1CCCCC1)n2C	15%
39	COc1ccc(CCN2C(=O)CS/C2=N\NC(=O)c2cccs2)cc1OC	2%
40	Cc1ccc(/C=C/c2onc(C)c2S(=O)(=O)N2CCC(C(=O)NCc3ccc(N(C)C)cc3)CC2)cc1	4%
41	CCOC(=O)C1CCN(C(=O)CNC(=O)c2nn(-c3ccc(OC)cc3)c(=O)c3ccccc23)CC1	2%
42	Cc1ccccc1OCC(=O)NCC(=O)N/N=C/c1ccc(Br)o1	-7%
43	CC(=O)N1N=C(c2ccccc2O)CC1c1cccs1 (centres undefined)	10%
44	O=C(CN(Cc1ccccc1)S(=O)(=O)c1ccc2c(c1)OCCO2)Nc1ccc2c(c1)OCCO2	-3%
45	COc1ccc(C(=O)Nc2nc3nc(C)c(Cl)c(=O)n3[nH]2)cc1	10%
46	COc1ccccc1CNC(=O)C1CCN(S(=O)(=O)c2ccc(-n3cnnn3)cc2)CC1	2%
47	Cc1ccsc1C(=O)Nc1n[nH]c(C(F)(F)F)n1	10%
48	COc1cc(CN2CCCC(N3CCc4ccccc4C3)C2)c(Cl)cc1O (centres undefined)	12%
49	CC(=O)OCC(=O)[C@@]1(O)CC[C@H]2[C@@H]3CCC4=CC(=O)C=C[C@]4(C)[C@H]3[C@@H](O)C[C@@]21C	-7%
50	COc1ccc(COc2cccc3ccc(C)nc23)cc1F	23%
51	Cc1ccccc1-n1cnnc1SCC(=O)N1CCN(c2ccccc2)CC1	-15%
52	CN1CCN(CC(=O)N2c3ccc(S(=O)(=O)NCCNC(=O)OC(C)(C)C)cc3C(=O)Nc3cccnc32)CC1	9%
53	Cc1ccc(C(=O)N/C(=C/c2cccc([N+](=O)[O-])c2)C(=O)NC(C)C)cc1	-4%
54	CCOC(=O)c1cn(CC(=O)Nc2ccccc2C(=O)OCC)nn1	4%
55	O=C(O)c1nccnc1C(=O)NCCc1c[nH]c2ccccc12	-7%
56	COC(=O)c1ccc(CNC(=O)[C@@H]2CCCN2S(=O)(=O)c2ccccc2F)cc1	19%
57	Cc1c(NC(=O)c2cc(-c3cccc(Cl)c3)on2)c(=O)n(-c2ccccc2)n1C	-4%&-13%
58	COc1cc2oc3ccc(C#Cc4ccccn4)cc3c(=O)c2cc1OC	0%
59	Cn1nnc2cc(NC(=O)N3CC4(C)CC3CC(C)(C)C4)ccc21 (centres undefined)	7%
60	Oc1c(C(c2ccccc2F)N2CCC3(CC2)OCCO3)sc2nc(-c3ccco3)nn12 (centres undefined)	4%

(cont.)
#	mol	VDR inhibitor
61	O=C(O)c1ccc(N2C(=O)c3cccc4c(C(=O)O)ccc(c34)C2=O)cc1	29%
62	COc1ccc(N(CC(=O)NC2CCCC2)C(=O)c2ccc(C)s2)cc1OC	3%
63	Cc1ccc(Cl)cc1NC(=O)Cn1cc(S(=O)(=O)Cc2ccccc2Cl)c2ccccc21	16%
64	Cc1ccc(N2CCN(C(=O)c3ccccc3NC(=O)C3CCCCC3C(=O)O)CC2)cc1 (centres undefined)	-9%
65	COc1ccc(C(=O)OCc2c(-c3ccccc3)ncc3ccccc23)cc1	-5%
66	ClC1(CNc2ccccc2)CCN(Cc2ccccc2)CC1	-3%
67	Cc1cccc(C(=O)N/N=C/c2ccccn2)c1	-3%
68	COc1ccc(C(=O)NCc2nnc(SCC(=O)N3CCCCCC3)o2)cc1OC	6%
69	Cc1ccc(NC(=O)CSc2nnc([C@@H]3CCCN3C(=O)OC(C)(C)C)o2)c(C)c1	5%
70	Cc1cccc(-n2nnnc2SCC(=O)Nc2ccc(N3CCN(C)CC3)cc2)c1	-8%
71	O=C(NCc1cccs1)C1CCCN(S(=O)(=O)c2cccc3cccnc23)C1 (centres undefined)	-24%
72	COc1ccc(N2CCN(C(=O)c3cn(C)c(=O)c4c3c3ccccc3n4C)CC2)cc1	9%
73	COc1cc(NC(=O)c2ccc3c(SCC(=O)O)c4c(nc3c2)CCC4)cc(OC)c1OC	-2%
74	CCCc1[nH]n(-c2nc3ccccc3s2)c(=O)c1C=NCCCOC	8%
75	O=C(O)CCN1C(=O)C2C3c4ccccc4C(c4ccccc43)C2C1=O (centres undefined)	-18%
76	O=C(O)c1cc(NS(=O)(=O)c2ccc(N3CCCCC3)c([N+](=O)[O-])c2)cc(C(=O)O)c1	-3%
77	COc1ccc(N2CCN(c3ncnc4scc(-c5ccc(C)cc5)c34)CC2)cc1	26%
78	O=C1N(CCCCN2C(=O)C3(OCCO3)c3ccccc32)c2ccccc2C12OCCO2	1%
79	O=S(=O)(/C=C/c1ccccc1)n1cnc2ccccc21	2%
80	COc1ccc(C(=O)COc2nc(C)cc(C)c2C#N)cc1	-2%
81	NC(=O)C1CCN(CC(=O)Nc2cccc(C(=O)Nc3cccc(C(F)(F)F)c3)c2)CC1	1%
82	COc1ccc(CC(=O)Nc2cccc3ccccc23)cc1OC	2%
83	COc1ccc(NC(=S)Nc2ccc3nccnc3c2)cc1	-27%
84	Cc1c(C(=O)NCc2ccc(Cl)cc2)sc2nc3n(c(=O)c12)CCCC3	3%
85	COc1cccc(-n2c(=S)sc3c(=O)n(-c4ccccc4OC)c(=S)[nH]c32)c1	-2%
86	O=C(O)CSc1nc2ccccc2[nH]1	?
87	CC(C)NS(=O)(=O)c1ccc(OCC(=O)NCc2ccc3c(c2)OCO3)c(Cl)c1	-2%
88	O=C(NN=C1CCCC1)c1ccc(O)cc1	-18%
89	CC(=O)Nc1ccc(C(=O)OCC(=O)Nc2ccc(N3CCOCC3)cc2)cc1	-10%
90	O=C(N=NC(=O)c1ccc2c(O)n(C3CCCCC3)c(O)c2c1)c1cccnc1	14%

Quoted at random: two records from the list.
#	mol	VDR inhibitor
66	ClC1(CNc2ccccc2)CCN(Cc2ccccc2)CC1	-3%
79	O=S(=O)(/C=C/c1ccccc1)n1cnc2ccccc21	2%

The list goes on.
#	mol	VDR inhibitor
91	COc1cccc(NC(=O)CSC2=Nc3ccccc3C3=NC(CCC(=O)NC4CCCCC4)C(=O)N23)c1 (centres undefined)	4%
92	CN(CCO)c1nc(-c2cccs2)nc2ccccc12	?
93	Cc1cc(C)c(C)c(S(=O)(=O)N2CCC(C(=O)NCc3ccco3)CC2)c1C	2%
94	Cc1ccc(CN(C(=O)COc2ccc(Cl)cc2C)C2CCS(=O)(=O)C2)o1 (centres undefined)	1%
95	C=CCNS(=O)(=O)c1cc(S(=O)(=O)NCC=C)c(OC)cc1OC	9%
96	Cc1ccc(NC(=O)Nc2cnc3ccccc3c2)cc1	-7%
97	COC(=O)C1(S(=O)(=O)c2cc(Br)cc3c2N(C(C)=O)CC3)CC1	-11%
98	Cc1cccc(N2CCN(C(=O)CCNS(=O)(=O)c3cccs3)CC2C)c1 (centres undefined)	10%
99	Cc1ccc2cc(C)c(Sc3nnnn3-c3ccccc3)nc2c1	3%
100	CC1=NN(/C(=N\c2nnc(C)s2)Nc2ccc(C)cc2)[C@H](c2ccc(C)cc2)S1	-5%
101	C=CCn1c(SCC(=O)Nc2ccc(OC)cc2)nc2c([nH]c3ccccc32)c1=O	12%
102	CCc1cc(=O)oc2c(C)c(O[C@@H]3O[C@H](CO)[C@@H](O)[C@H](O)[C@H]3O)ccc12	-10%
103	CN(CCOc1ccc(F)cc1)Cc1ccccc1	-2%
104	CCOc1ccccc1-n1c(CN2CCN(C(=O)c3ccco3)CC2)nc2ccccc2c1=O	-16%
105	CN(C)S(=O)(=O)c1ccc(C(=O)NCCN2C(=O)S/C(=C\c3cccnc3)C2=O)cc1	5%
106	Cc1cc(OC(C)C(=O)Nc2ccncc2)ccc1Cl (centres undefined)	1%
107	CCC(c1nnc(SCC(=O)Nc2cccnc2Cl)n1-c1ccccc1)N(C)C (centres undefined)	-3%
108	c1ccc2c(-n3ccnc3)nc(-c3ccoc3)nc2c1	32µM*
109	COc1ccc(N/C=C2\CCc3ccccc3C2=O)cc1	9%
110	COCCn1nnnc1C(C(C)C)N1CCSCC1 (centres undefined)	-17%
111	COc1cc(C(CCN2CCCCC2)c2c(OC)cc(OC)c3c2OC(=O)CC3c2ccc(N(C)C)cc2)cc(OC)c1OC (centres undefined)	-9%
112	COc1cccc(-n2ccnc2SCC(=O)Nc2ccccc2F)c1	22%
113	COc1ccc(Cl)cc1N(CC(=O)N1CCCC1)S(=O)(=O)c1ccc(C)cc1	9%
114	CCCc1nc(SCC(=O)N2CCC(C)CC2)c2c(=O)n(C)c(=O)n(C)c2n1	3%
115	CCCCN(C(=O)CSCC(=O)Nc1ccc(OC)cc1)c1c(N)n(CCC)c(=O)[nH]c1=O	-6%
116	O=C(CSc1nccn1Cc1ccccc1)Nc1nccs1	11%
117	O=C1CC(c2c(F)cccc2Cl)C(n2cncn2)C(O)=C1C1NCCc2ccccc21 (centres undefined)	25%
118	COc1ccc(CCn2nnnc2C(C(C)C)N2CCC(C(N)=O)CC2)cc1OC (centres undefined)	-5%
119	COc1cccc(NC(=O)c2ccc3nc(Cc4ccccc4)oc3c2)c1	-6%
120	Cc1ccc(/C=N/Nc2ccc(F)cc2F)s1	-3%

Among those listed so far, 3 contain a nitro group on carbon:
#	mol	VDR inhibitor
4	Cc1nn(CC(=O)Nc2ccncc2)c(C)c1[N+](=O)[O-]	-12%
53	Cc1ccc(C(=O)N/C(=C/c2cccc([N+](=O)[O-])c2)C(=O)NC(C)C)cc1	-4%
76	O=C(O)c1cc(NS(=O)(=O)c2ccc(N3CCCCC3)c([N+](=O)[O-])c2)cc(C(=O)O)c1	-3%

The list goes on:
#	mol	VDR inhibitor
121	CC(=O)Nc1cc(-c2ccc(Cl)cc2)nn1-c1ccccc1	17%
122	O=C(COc1ccc(S(=O)(=O)N2CCCCC2)cc1)N1CCOCC1	7%
123	Cc1[nH]c2ccccc2c1/C=C(\C#N)S(=O)(=O)c1ccccc1	11%
124	CCOC(=O)/C(C#N)=C1/C=C(C)c2ccccc2N1	-4%
125	COc1ccc(Br)cc1CNC(=O)CCSCc1ccc(Cl)cc1	9%
126	Cn1c(-c2ccccc2)cnc1SCC(=O)N1CCCCC1	-4%
127	COCCNC(=O)CSc1nnc(-c2ccccc2)c(-c2ccccc2)n1	0%
